# Source: PubChem (several laboratories)
# Sa RN4220 lethal – growth inhibition of S. aureus RN4220, primary screen, OD600; 16 h; inhibition, % (test concentration not listed); 330,000 compounds, 0.33% hits; AID 1259311, 2017;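 active = z-score of -3 or lower and OD600 up to 0.18 on both plates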;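 also: plate controls were untreated cells for no effect and reference antibiotic for full effect; stock transfer was 100 nL into about 80 µL; one replicate is shown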
# Mtb hypoxia rep – PubChem AID 1159583. 300,000 compounds, 0.1% hits. M. tuberculosis hypoxia-regulated fluorescent reporter, fluorescence. fluorescence inhibition, % (concentration not given with the values);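 active = 35 to 45% if threefold the growth effect, above 45% if 1.5-fold the growth effect; inactive = the rest, general growth blockers included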;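 also: wells of about 50 µL received 100 nL stock; 0% = vehicle wells and 100% = reference inhibitor wells; whole bacteria with a GFP reporter of the hypoxia response; strong numbers were not always called active; many hits fall short of the cut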
# PrP UTR inh – inhibition of PrP 5' UTR reporter expression. cell-based PrP 5' UTR mRNA reporter, plate reader. inhibition, % (test concentration not listed). 340,000 compounds, 0.35% hits;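 active = every replicate at 50% or more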;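 also: 0 = median of the neutral control wells; tested in H4 reporter cells; numbers are from one replicate; inactives centre near -14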
# ugtP null kill – growth inhibition of ugtP-null S. aureus, primary screen, RN4220 ugtP deletion, OD600 | 16 h; some inactives read as strong as hits | growth inhibition, % (concentration not given with the values) | 330,000 compounds, 0.54% hits;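 active = z-score under -3 and OD600 up to 0.15 on both plates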;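 also: plate controls were untreated wells for no effect and antibiotic for full effect; wells of about 80 µL received 100 nL stock; the first replicate is given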
# Bead autofluor – compound fluorescence in toxin protease inhibitor counterscreen; compound autofluorescence counterscreen, microsphere flow cytometry; active compounds read high; fluorescence intensity (concentration not given with the values); 360,000 compounds, 3.1% hits; AID 624483;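 active = at least 3 SD above the mean of all compounds, about 16000 in these data; inconclusive = too few beads counted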;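 also: 100 nL of 1 mM stock went into each well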
# BJeLR viability – MLPCN primary cell-based screen for lethality selective to Ras in HRASV12 cells | inhibition, % (concentration not given with the values) | BJeLR (HRASV12) viability, CellTiter-Glo ATP luminescence, 48 h; reference of the scale not given here | 300,000 compounds, 0.17% hits;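 active = replicate mean above 50%; inconclusive = above 50% but judged a plate artefact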;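 also: 50 nL library stock added to about 25 µL; numbers are from one replicate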
# Mtb hypoxia rep growth – recorded beside Mtb hypoxia rep, whose call it bears; growth inhibition, %; measured here: M. tuberculosis growth (absorbance);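 0% = vehicle and 100% = reference antibiotic; read after six days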
# The depositor's hits bear a star; ? = inconclusive; · = not tested or not shown.
Structure	Sa RN4220 lethal	Mtb hypoxia rep	Mtb hypoxia rep growth	PrP UTR inh	ugtP null kill	Bead autofluor	BJeLR viability
O=C(N[C@@H](Cc1ccccc1)C(=O)OCc1ccccc1)c1nc[nH]c1C(=O)NC(c1ccccc1)c1ccccc1	·	·	·	-8.2	·	3428	5.8
CCOC(=O)c1sc(NC(=O)c2cc3n(n2)C(C(F)(F)F)CC(c2cccs2)N3)c(C(=O)OCC)c1C (stereo not given)	-2.0	·	·	-16.5	-11.8	2736	-4.6
O=C(NCc1ccccc1)c1cc(-n2cnnc2)ccc1Cl	1.7	·	·	-14.9	3.5	4898	·
CN(C)C1(CNC(=O)C2CCN(S(=O)(=O)c3cc(Cl)ccc3Cl)CC2)CCCCC1	4.8	15.3	2.4	-2.5	15.9	4115	7.2
CSc1nc2[nH]c3c(c2c2nncn12)CC(C)(C)OC3	3.8	·	·	4.3	-1.7	3478	3.6
O=C(NC(CSCc1ccccc1)C(=O)N/N=C/c1ccc(O)cc1O)c1ccc([N+](=O)[O-])cc1 (stereo not given)	·	·	·	39.4	·	8230	0.1
CCO[C@@H]1OC(C(=O)Nc2ccccc2)=C[C@H](C)[C@H]1CCCO	·	·	·	-4.8	·	3908	8.5
CC(C(=O)c1c[nH]c2ccccc12)N1CCSCC1 (stereo not given)	2.9	4.6	-2.6	-13.7	0.5	3185	1.4
CCn1c(Cc2c(C)[nH]c3ccccc23)nnc1SCC(N)=O	4.3	11.2	2.9	-9.9	4.0	8057	0.8
CC(=O)Cc1nsc(NC(=O)c2ccc(-c3cc(C(F)(F)F)ccc3Cl)o2)n1	2.6	5.6	6.0	-15.4	3.1	15647	-6.8
C/C(Cl)=C/Cn1c(=O)c2c(nc(Br)n2Cc2ccccc2)n(C)c1=O	1.4	·	·	-16.2	8.1	2703	-10.2
CCC1CN(C(=O)N2CCC(C(=O)NCc3ccc(C)o3)CC2)c2cc(C)ccc2O1 (stereo not given)	0.8	3.6	4.8	-27.8	4.2	4234	2.8
Cc1cccc(NC(=O)CCc2nc3sc4c(c3c(=O)[nH]2)CCCC4)n1	2.7	7.6	-4.4	-14.9	-0.8	?	4.3
CCCOc1ccc(C(=O)CCC(=O)NNC(=O)Cn2nc(C)cc2C)cc1	1.9	8.3	6.9	-22.0	10.6	6112	0.7
O=C(Nc1ccccc1)c1ccccc1NC(=O)c1ccccc1[N+](=O)[O-]	0.3	4.5	-1.7	-16.7	9.5	4106	2.0
c1ccc(Nc2ccccn2)cc1	3.8	-1.7	2.6	-27.9	-4.8	9414	0.6
CCCCNC(=O)Nc1cc(C(F)(F)F)c[nH]c1=O	6.4	14.8	3.2	-27.2	-6.4	24583*	1.3
CCn1c2ccccc2c2cc(NC(=O)COc3ccccc3)ccc21	6.8	4.5	8.0	1.1	-19.8	1934	-8.9
N=c1oc2ccccc2cc1-c1nc(-c2ccccc2)cs1	10.0	2.9	7.9	-27.2	-6.1	8972	-8.6
COc1cccc(C(CC(=O)NCc2ccco2)NS(=O)(=O)c2ccc(C)cc2)c1OC (stereo not given)	1.8	·	·	-12.6	-3.5	4416	-3.4

# Seven entries already listed, ordered by formula weight, smallest number first.
Structure	Sa RN4220 lethal	Mtb hypoxia rep	Mtb hypoxia rep growth	PrP UTR inh	ugtP null kill	Bead autofluor	BJeLR viability
c1ccc(Nc2ccccn2)cc1	3.8	-1.7	2.6	-27.9	-4.8	9414	0.6
CC(C(=O)c1c[nH]c2ccccc12)N1CCSCC1 (stereo not given)	2.9	4.6	-2.6	-13.7	0.5	3185	1.4
N=c1oc2ccccc2cc1-c1nc(-c2ccccc2)cs1	10.0	2.9	7.9	-27.2	-6.1	8972	-8.6
CCO[C@@H]1OC(C(=O)Nc2ccccc2)=C[C@H](C)[C@H]1CCCO	·	·	·	-4.8	·	3908	8.5
CCn1c2ccccc2c2cc(NC(=O)COc3ccccc3)ccc21	6.8	4.5	8.0	1.1	-19.8	1934	-8.9
CN(C)C1(CNC(=O)C2CCN(S(=O)(=O)c3cc(Cl)ccc3Cl)CC2)CCCCC1	4.8	15.3	2.4	-2.5	15.9	4115	7.2
O=C(NC(CSCc1ccccc1)C(=O)N/N=C/c1ccc(O)cc1O)c1ccc([N+](=O)[O-])cc1 (stereo not given)	·	·	·	39.4	·	8230	0.1

# Remaining list, next part.
Structure	Sa RN4220 lethal	Mtb hypoxia rep	Mtb hypoxia rep growth	PrP UTR inh	ugtP null kill	Bead autofluor	BJeLR viability
Cc1onc(-c2ccccc2)c1C(=O)N1CCN(c2ccccc2F)CC1	1.2	11.0	8.6	-20.5	6.9	3802	4.4
COc1ccccc1OCCNc1cc(N2CCOCC2)ccc1[N+](=O)[O-]	3.6	16.2	10.3	-27.9	-4.4	10588	-6.5
CCC(=O)N1N=C(c2ccccc2)CC1c1ccccc1 (stereo not given)	2.2	4.1	1.8	-17.1	3.3	3381	-14.8
CCC(=O)N1N=C2C3CCN(CC3)C2C1c1ccc(C)cc1 (stereo not given)	-1.3	4.2	10.4	-6.3	-2.9	6359	0.0
CCOC(=O)Nc1ccc2c(c1)N(C(=O)CN1CCN3CCCC3C1)c1ccccc1CC2 (stereo not given)	3.8	0.7	11.3	-22.5	-1.7	18490*	-1.4
COc1ccc([N+](=O)[O-])cc1-n1cnnn1	4.3	10.6	10.3	-14.8	2.6	4242	-8.7
CC(NC(=O)COc1ncnc2cc([N+](=O)[O-])ccc12)c1ccccc1 (stereo not given)	3.4	1.7	-0.4	-15.4	3.9	2475	-2.7
Cc1ccc(NC(=O)CSc2nc3ccccc3c(=O)n2CC2CCCO2)cc1 (stereo not given)	1.4	4.7	7.8	-3.0	-0.6	3076	-9.0
CC(=O)NC(c1ccccc1)c1cccnc1 (stereo not given)	2.2	3.2	-3.6	-17.0	4.9	16197*	1.8
CC1(c2ccc(OC(F)F)cc2)NC(=O)N(CC(=O)Nc2ccc(F)cc2)C1=O (stereo not given)	-8.0	14.3	0.2	9.1	-0.5	6008	14.7
Cc1ccc(NN=C(C#N)C(=N)N2CCCCCC2)cc1	0.6	-13.1	0.5	·	-5.3	·	·
O=C(Nc1ccc(Cl)c(Cl)c1)Nc1ccon1	15.4	0.9	4.4	-4.5	-34.2	5673	22.0
O=C(C(Cc1ccccc1)n1cccc1)N1CCN(C2CCCCC2)CC1 (stereo not given)	-15.8	13.6	12.2	-24.7	-5.6	6295	1.4
CCN1C(=O)C2C(c3ccc(C)cc3)N3C(=O)N(c4ccc(C)cc4)C(=O)[C@@]3(C)C2C1=O (stereo not given in full)	5.9	4.8	3.5	·	1.4	·	·
CC1=CSC2=NC(C(F)(F)F)(C(F)(F)F)NC(=O)N12	4.4	-4.3	0.2	-28.4	4.8	5537	-6.7
COc1ccccc1-c1cc(C(F)(F)F)nc(NCc2ccco2)n1	-3.9	-0.5	5.3	-11.0	8.8	3335	-7.9
Cn1nc(C(F)(F)F)c2cc(NC(=O)OCc3ccc(F)cc3)sc21	-11.4	·	·	-12.4	-16.3	2495	8.7
CCOC(=O)N1CCC(NC(=O)Cc2ccccc2)CC1	2.8	3.3	8.0	-28.2	4.0	3440	-3.3
COc1ccccc1CNC(=O)C1CCN(C(=O)N(C)C)CC1	1.4	4.9	8.2	-23.4	3.0	20518*	-9.4
O=C(Nc1ccccc1)c1nnsc1S(=O)c1ccc(Cl)cc1 (stereo not given)	100.3*	·	·	-70.4	100.5*	4790	-14.0

# Retrieved one by one from the list above:
Structure	Sa RN4220 lethal	Mtb hypoxia rep	Mtb hypoxia rep growth	PrP UTR inh	ugtP null kill	Bead autofluor	BJeLR viability
COc1ccccc1OCCNc1cc(N2CCOCC2)ccc1[N+](=O)[O-]	3.6	16.2	10.3	-27.9	-4.4	10588	-6.5
CCOC(=O)Nc1ccc2c(c1)N(C(=O)CN1CCN3CCCC3C1)c1ccccc1CC2 (stereo not given)	3.8	0.7	11.3	-22.5	-1.7	18490*	-1.4

# (continued)
Structure	Sa RN4220 lethal	Mtb hypoxia rep	Mtb hypoxia rep growth	PrP UTR inh	ugtP null kill	Bead autofluor	BJeLR viability
O=C(CN1C(=O)NC2(CCCCC2)C1=O)Nc1cccc(Cl)c1Cl	8.9	12.0	2.0	-9.8	1.9	3384	·
C(/CCc1ccccc1)=N\Nc1nc2ccccc2[nH]1	·	·	·	-55.8	·	3948	19.4
NC(=O)c1ccsc1NC(=O)COC(=O)CNC(=O)c1cccc([N+](=O)[O-])c1	2.6	0.1	-3.2	-18.6	1.0	3623	·
Nc1ccc(S(=O)(=O)c2ccc(Cl)cc2)cc1	0.7	-4.0	7.9	-6.7	-1.0	5352	-7.8
Cc1nc(N)nc(NN=Cc2ccccc2)n1	4.4	-10.7	-0.3	·	3.0	·	·
O=C(CCN1C(=O)CSC1=O)Nc1ccc(Br)cc1	2.0	5.1	2.3	-7.6	-1.8	8610	-7.0
O=C(O)c1ccc(NS(=O)(=O)/C=C/c2ccccc2)cc1O	6.1	15.1	25.0	-19.8	7.8	21416*	0.1
CCc1ccc(NC(=O)CC2C(=O)N(c3ccc(C)cc3)C(=O)N2C2CC2)cc1 (stereo not given)	1.1	0.0	4.0	31.5	14.2	4126	11.9
S=C(NCc1cccnc1)Nc1ccc2c(c1)OCO2	2.1	6.4	7.8	-6.7	3.9	4806	-1.7
O=S(=O)(Nc1ncccn1)c1ccc(NC(=S)Nc2ccccc2)cc1	5.3	12.3	4.9	5.5	13.2	4464	7.7
COc1ccc(OC)c(/C=C/C(=O)OCC(=O)NC2CCCCCCC2)c1	3.6	2.9	0.5	-5.8	3.5	?	·
CC(NC(=O)c1ccccc1)C(=O)OCC(=O)c1ccc(Br)cc1 (stereo not given)	3.0	3.7	1.7	-23.3	-2.9	5105	-0.6
Cc1ccc(OCC(O)CN2CCN(CCO)CC2)c(C)c1 (stereo not given)	4.0	-2.4	10.4	-10.0	5.2	3492	-0.4
Cc1cc(NC(=O)CCC2CCCC2)no1	7.6	16.2	2.7	-0.3	-4.1	4242	7.4
CCOC(=O)Nc1ccc2c3c(cccc13)-c1ccccc1-2	-12.7	3.1	8.9	-35.5	45.7	3797	·
COC(=O)c1c(NC(=O)CC2SC(N)=NC2=O)sc2c1CCC(C)C2 (stereo not given)	·	·	·	-43.2	·	2751	-7.4
C1CCC(OCCN2CCN(CCOC3CCCCC3)CC2)CC1	4.5	7.4	11.7	-14.8	10.3	11212	-6.0
CO/N=C/NC(=O)c1ccc([N+](=O)[O-])c(CS(=O)(=O)c2ccc(Cl)cc2)c1	·	·	·	5.5	·	2902	4.6
CCN1CCCC1CNC(=O)CSc1cc(=O)n(C)c2cc(Cl)ccc12 (stereo not given)	-0.2	2.7	5.3	-22.7	2.8	3751	-4.8
O=C(c1cccc2ccccc12)N1CCN(CC2CC=CCC2)CC1 (stereo not given)	9.0	14.1	15.0	-31.2	26.8	11047	-2.9

# Some of the entries so far, with two lines to a compound.
# Values run as follows: Sa RN4220 lethal | Mtb hypoxia rep | Mtb hypoxia rep growth | PrP UTR inh | ugtP null kill | Bead autofluor | BJeLR viability
- CC(=O)Cc1nsc(NC(=O)c2ccc(-c3cc(C(F)(F)F)ccc3Cl)o2)n1
  2.6 | 5.6 | 6.0 | -15.4 | 3.1 | 15647 | -6.8
- C/C(Cl)=C/Cn1c(=O)c2c(nc(Br)n2Cc2ccccc2)n(C)c1=O
  1.4 | · | · | -16.2 | 8.1 | 2703 | -10.2
